Bioassay records (PubChem)
miR-21 FLuc: raises the signal of a miR-21 reporter. Potency, µM (titrated, usually from 38.3 µM), without a hit: at the highest dose reporter change, positive = more light. AID 2288. HeLa miR-21 FLuc reporter, luciferase, 48 h. 340,000 tested, under 10 active; active = well fitted rising curve with a large enough effect; inconclusive = small, poorly fitted or top-dose-only effect; inactive = no such curve, though single readings can be large or run the other way;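 note: % of control where 0% means no effect; miR-21 action dims this reporter so a rising signal means less miR-21 action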
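HeLa cells stably expressing CMV-driven firefly luciferase with a downstream miR-21 binding sequence, endogenously expressing miR-21, were treated with titrations (up to about 40uM final) for 48 hours at 37 degree Celsius. Luciferase luminescence was read after lysis.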
GLA inh pH 4.5: inhibitors of human alpha-galactosidase A at pH 4.5. P06280. purified enzyme, 4-MU-alpha-Gal fluorescence, pH 4.5. activity change, negative = inhibition, % at 105 µM. 230,000 tested, under 10 active. AID 1467; inconclusive = small, poorly fitted or top-dose-only inhibition, or a rising curve; inactive = flat fitted curve, though single readings scatter; no compound was filed as active;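 note: 0% = full activity with enzyme and -100% = basal without enzyme; dose as in the result columns while the protocol names 77 µM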
Target sequence (P06280 whole entry, looked up): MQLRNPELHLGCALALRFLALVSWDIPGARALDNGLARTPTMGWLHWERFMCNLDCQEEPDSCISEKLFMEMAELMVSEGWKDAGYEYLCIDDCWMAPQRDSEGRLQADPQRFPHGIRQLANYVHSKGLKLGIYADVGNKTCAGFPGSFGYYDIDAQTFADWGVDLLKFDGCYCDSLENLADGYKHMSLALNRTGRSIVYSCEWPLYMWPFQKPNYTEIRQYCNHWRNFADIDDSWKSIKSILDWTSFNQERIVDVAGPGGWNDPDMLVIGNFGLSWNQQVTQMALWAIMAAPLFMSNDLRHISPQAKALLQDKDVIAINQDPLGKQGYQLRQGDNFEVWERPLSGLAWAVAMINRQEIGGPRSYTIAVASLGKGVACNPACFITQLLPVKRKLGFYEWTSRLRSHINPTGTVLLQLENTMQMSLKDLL
Rango dissoc inh: prevents RanGTP from dissociating the Rango-importin beta complex. Biochemical FRET Rango-importin beta, RanGTP-induced dissociation. actives 0.071% (n = 340,000). AID 540253. Potency, µM (titrated, usually from 46.1 µM), without a hit: at the top dose activity change, negative = inhibition. O95149+P62826; active means falling FRET ratio curve, often poorly fitted, with flat reads before Ran was added; inconclusive means other falling curves, or compound fluorescence or quenching; inactive means flat or rising ratio curve;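 note: potency is the fitted concentration of half-maximal effect; % of control where 0% means no effect; nearly all actives have a fitted effect of over 45% in size; -100% = wells without RanGTP and RCC1; the record marks most hits as doubtful in a second field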
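Compounds preincubate 5 min with complex of recombinant Rango and importin beta in PBS with 1 mM DTT. Ran (0.6 uM) loaded with 2 mM GTP plus 0.2 uM RCC1 starts dissociation; FRET is recorded 45 min later.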
Rango complex inh: Rango-importin beta binding inhibition | Q14974 | Rango CFP/YFP FRET sensor + importin beta, 45 min | Potency, µM (doses to about 92.2 µM), without a hit: at the top dose inhibition of complex formation | actives 0.031% (n = 340,000); active = rising FRET ratio curve, often small or poorly fitted; inconclusive = mostly compound fluorescence or quenching in the first reads; inactive = flat curves in all reads;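 note: potency is the fitted concentration of half-maximal effect; 0% = DMSO wells and 100% = buffer wells lacking importin beta; nearly all actives have a fitted effect of over 15% in size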
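Inhibition scored from the CFP 486 nm/YFP 530 nm FRET ratio 45 min after adding 0.125 microM importin beta to 50 nM Rango biosensor preincubated 5 min with compound (room temperature, PBS with DTT, Tween-20, BSA). No-importin wells as positive control.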
Starred values were filed as active, the others as inactive; ? = inconclusive; . = not tested or not shown; & = joins results of further samples. Only part of the results is shown; count on the stated rates, not on these rows.

SMILES	miR-21 FLuc	GLA inh pH 4.5	Rango dissoc inh	Rango complex inh
COc1ccc(OCCCC(=O)NCCc2nc3ccccc3[nH]2)cc1	-1%	4	0%	4.6%
O=C(NC(NCc1ccccn1)(C(F)(F)F)C(F)(F)F)c1ccco1	-10%	1	0%	-0.5%
Cc1cc(C(=O)NNc2cc(Cl)ccc2Cl)no1	-12%	2	?	-0.2%
CCCCc1sc(-c2c(C#N)c(N)nc3c2CCCCC3)cc1[N+](=O)[O-]	-1%	-14	18%	0.9%
CCCCc1nc(C(N)=O)c2[nH]c(=O)n(-c3ccc(OC)c(OC)c3)c2n1	-7%	.	8%	-2.9%
CCc1ccc(NC(=O)CCc2ccc(C)o2)cc1	-10%	.	-5%	2.3%
COc1ccc2cc(S(=O)(=O)NCCCN3CCOCC3)ccc2c1	1%	-3	4%	-2.4%
CC(C)(C)C(=O)N1CCC2CC1c1cc(Cl)ccc12 (stereo not given)	.	.	-7%	3.5%
Cc1cc(=O)[nH]c(N/N=C/c2c[nH]c3ccccc23)n1	-16%	1	-7%	-0.2%
CCCc1c(O)nc(SCC(=O)NCCc2ccc(OC)c(OC)c2)[nH]c1=O	1%	1	12%	0.0%
COC(=O)COc1cccc(NS(=O)(=O)c2cccc([N+](=O)[O-])c2)c1	0%	-3	-8%	-2.8%
COc1ccc(C)cc1-n1nnnc1SCC(=O)NC1CC1	.	.	0%	-2.5%
O=C(O)CCC(=O)N1CCN(c2nc(-c3ccccc3Cl)c3cc(Br)ccc3n2)CC1	8%	-21	?	?
COc1ccc(NC(=O)C2CCCCN2N)cc1OCC(C)C (stereo not given)	-21%	4	15%	2.4%
CSCCC(NC(=O)c1ccccc1Cl)C(=O)NNC(=O)c1csc(N2CCOCC2)n1 (stereo not given)	.	.	-10%	-2.0%
CC(=O)Nc1nnc(SCC(=O)Nc2ccc(N3CCOCC3)c(Cl)c2)s1	-2%	4	0%	0.8%
CC(C)Oc1ccc(CNC(=O)Oc2ccccc2)cc1	3%	.	16%	5.0%
Cc1ccccc1NCc1ccc([N+](=O)[O-])s1	16%	.	9%	-0.6%
CC1=CC(C)(C)N(C(=O)CCl)c2ccccc21	-2%	5	3%	2.1%
C=CCn1c(N)cc(=O)nc1SCC(=O)Nc1cccc2ccccc12	-4%	5	-9%	-2.6%
CN1CCN(C(=O)C2=C[C@@H](C3CC3)C[C@@H](OCc3ccc(CO)cc3)O2)CC1	0%	-10	1%	-4.9%
O=C(Nc1ccc(F)cc1)c1ccc2[nH]c(=O)c(=O)[nH]c2c1	2%	.	-17%	1.5%
COc1ccc(CC(=O)N2CCOCC2)cc1OC	-3%	0	11%	2.5%
CCN(CC)C(=O)Cn1cc(S(=O)(=O)CC(=O)Nc2ccc(OC)c(OC)c2)c2ccccc21	-1%	.	-5%	0.1%
C(=C\c1ccccc1)/CSc1nnc(-c2cccnc2)n1Cc1ccco1	-5%	4	1%	4.3%
O=C(CSc1ccccc1)Nc1ccc(N2CCOCC2)cc1	-19%	3	-1%	-0.1%
O=C(Nc1ccc(NC(=O)c2ccncc2)cc1)c1ccncc1	-6%	-6	.	.
O=C(O)C1CCCN1C(=O)C1CCN(S(=O)(=O)c2cccc(C(F)(F)F)c2)CC1 (stereo not given)	.	.	35%	4.2%
CCN=c1scc(-c2ccc(F)cc2)n1/N=C/c1ccccn1	-28%	-15	?	?
CCNCCNC(=O)c1c(O)c2ccccc2n(CC)c1=O	-7%	5	0%	-2.3%
COc1ccc(CCN2C(=NC(=O)CC(C)C)SC3CS(=O)(=O)CC32)cc1 (stereo not given)	0%	8	6%	-5.1%
COc1ccc(CCC(=O)N2CCN(S(=O)(=O)c3ccc(OC(F)(F)F)cc3)CC2)cc1	.	.	2%	-3.4%
O=S(=O)(c1ccc(OCC(O)CN2CCN(c3ccccc3O)CC2)cc1)N1CCOCC1 (stereo not given)	5%	9	-16%	-3.6%
Cc1ccccc1N1CCN(C2CCCN(C(=O)c3cn4cccc(C)c4n3)C2)CC1 (stereo not given)	?	.	-7%	2.4%
CN(CCNC(=O)C1CCN(c2ncnc3c2nc2n3CCCCC2)CC1)Cc1ccccc1	1%	.	5%	-0.4%
O=C1Nc2ccccc2/C1=C/c1cccnc1	22%	3	2%	-2.2%
CCCCC(O)(CCCC)C(=O)NNc1ccccc1	-2%	5	-2%	1.8%
O=C(COC(=O)/C=C/c1ccccc1Cl)NCCc1ccc(Cl)cc1Cl	-1%	-3	0%	-1.2%
CCOC(=O)C1CCN(c2c(NCCN3CCN(c4ccccc4)CC3)c(=O)c2=O)CC1	-9%	0	-4%	0.4%
CCOC(=O)C(=NC(C)CC)NNc1cccc(C(F)(F)F)c1 (stereo not given)	0%	10	-3%	?
CCC(=O)Nc1cccc(NC(=O)CSc2nnc(-c3ccc(NS(C)(=O)=O)cc3)n2C)c1	-1%	4	10%	-2.1%
CC(=O)c1ccc(N2CCN(S(=O)(=O)c3ccc4c(c3)CC(=O)N4C)CC2)cc1	-10%	.	3%	?
COc1ccc(C(=O)COC(=O)C2CCN(c3ccc(C(F)(F)F)cn3)CC2)c(OC)c1	.	.	1%	-2.9%
CCCCNC(=O)c1ccc2c(c1)N(CC)C(=O)c1ccccc1S2(=O)=O	-11%	1	-2%	2.1%
CC1(C)CC(=O)C(Br)=C(O)C1	0%	-4	1%	-2.9%
OC(c1cccs1)(c1cccs1)C1C[N+]2(CF)CCC1CC2 (stereo not given)	-3%	5	0%	-3.7%
CCOc1ccc(C(=O)Nc2ccc(Cl)cn2)cc1Cl	-35%	0	-8%	-0.5%
COC(=O)[C@@H]1C[C@@]2(O)[C@H](O)[C@H](O)[C@H](O)C[C@H]2N1CC(c1ccccc1)c1ccccc1	1%	0&1	7%	-3.4%
O=C(COC(=O)c1ccc(Cl)nc1)Nc1cc(S(=O)(=O)N2CCCCC2)ccc1Cl	-2%	-18	-17%	-4.0%
CC(=O)Nc1ccc(C(=O)OCCC(C)C)cc1	-46%	-5	28%	-3.2%
CN(C)CCN(C(=O)c1cccc(N2C(=O)CCC2=O)c1)c1nc2ccc(Br)cc2s1	-25%	.	5%	0.9%
COc1cccc(NS(=O)(=O)c2cc3[nH]c(=O)c(=O)[nH]c3cc2C)c1	-1%	.	20%	-3.8%
O=C(c1cc(F)c(F)cc1Cl)N1CCN(S(=O)(=O)c2cccs2)CC1	.	.	-4%	3.2%
c1ccc(CN(Cc2ccccc2)Cc2nnc(-c3cc4ccccc4[nH]3)s2)cc1	.	.	-11%	1.1%
COc1ccc2c(c1)[nH]c1c(N3CCSCC3)ncnc12	?	4	1%	1.3%
Cc1c(Br)c(C(=O)NNC(=O)c2ccc(C(C)(C)C)cc2)nn1C	-28%	-3	20%	0.1%
Cc1cccn2c(=O)c3cc(C(=O)NCCc4ccccc4)sc3nc12	0%	.	-16%	?
COC(=O)CNC(=O)C(Cc1ccccc1)NS(=O)(=O)c1ccc2c(c1)c(=O)n(C)c(=O)n2C (stereo not given)	0%&1%	5	1%	-1.6%
CCOC(=O)C1=C(C)NC(C)=C(C(=O)OCC)C1C(=O)OCC(N)=O	-3%	0	-1%	0.1%
Oc1ccccc1-c1cc(-c2ccccc2)no1	-27%	-16	-2%	-1.4%

Single records, from the list above. Order of screens: miR-21 FLuc, GLA inh pH 4.5, Rango dissoc inh, Rango complex inh
Cc1cc(=O)[nH]c(N/N=C/c2c[nH]c3ccccc23)n1 in the list: -16%, 1, -7%, -0.2%
COC(=O)[C@@H]1C[C@@]2(O)[C@H](O)[C@H](O)[C@H](O)C[C@H]2N1CC(c1ccccc1)c1ccccc1 in the list: 1%, 0&1, 7%, -3.4%
CC(=O)Nc1ccc(C(=O)OCCC(C)C)cc1 in the list: -46%, -5, 28%, -3.2%
O=C(COC(=O)/C=C/c1ccccc1Cl)NCCc1ccc(Cl)cc1Cl in the list: -1%, -3, 0%, -1.2%
CCc1ccc(NC(=O)CCc2ccc(C)o2)cc1 in the list: -10%, ., -5%, 2.3%

(further entries)
SMILES	miR-21 FLuc	GLA inh pH 4.5	Rango dissoc inh	Rango complex inh
Cn1cnnc1SCC(=O)Nc1ccc(Cl)cc1	-11%	.	49%	-2.2%
c1ccc(Nc2nc(-c3ccccc3)nc3ccccc23)cc1	6%	.	4%	6.5%
CC(NC(=O)c1ccco1)c1cccc2ccccc12 (stereo not given)	-8%	2	1%	-3.0%
CCOc1cc(C(=O)OCc2ccc(OC)cc2)ccc1OCC(=O)N1CCOCC1	.	.	1%	-0.5%
Cc1noc(C)c1S(=O)(=O)Nc1ccc(C(C)C)cc1	0%	.	-3%	-0.6%
Cc1ccsc1C(=O)NNC(=O)C1CC=CCC1C(=O)O (stereo not given)	-91%	-11	7%	-1.0%
Cc1c(C(=O)N2CCCC2)oc2ccc(Br)cc12	-40%	.	-6%	3.7%
CCC(C)N(C(=O)CSc1ncnc2c1cnn2-c1ccccc1)C1CCS(=O)(=O)C1 (stereo not given)	.	.	1%	-2.5%
CC(C)Cc1nc(N2CCCCC2)c(C#N)c2c1CCC2	-2%	-1	-11%	5.0%
Cc1ccc(S(=O)(=O)CCC(=O)OCC(=O)N(C)C2CCS(=O)(=O)C2)cc1 (stereo not given)	.	.	7%	2.1%
CCN(CC(=O)Nc1ccc(OC)cc1)C(=O)COc1cccc2c1OC(C)(C)C2	.	.	3%	-0.1%
CC(=O)Nc1ccc(S(=O)(=O)Nc2cc([N+](=O)[O-])ccc2C)cc1	1%	-1	-6%	4.1%
CCOC(=O)C1=C(COC(=O)CNS(=O)(=O)c2ccc(NC(C)=O)cc2)NC(=O)NC1C (stereo not given)	.	.	-4%	0.1%
CN1COc2ccc3ccccc3c2C1	2%	14	-11%	-2.7%
CCN(C(=O)CSc1ncccc1C(=O)OC(C)C)c1cccc(C)c1	12%	-12	24%	1.2%
CC(=O)N1CCCc2cc(S(=O)(=O)N3CCCC(C(=O)N4CCN(c5cc(C)ccc5C)CC4)C3)ccc21 (stereo not given)	?	.	0%	-0.5%
Cc1cc(C(=O)Nc2ccccc2C)on1	0%	.	10%	2.9%
CCOC(=O)c1cc(-c2ccccc2)n(CC(=O)Nc2cc(OC)cc(OC)c2)c1C	5%	-8	-2%	1.3%
Fc1ccccc1-c1nnc2n1N=C(c1ccc(OC(F)F)c(OCC3CC3)c1)CS2	.	.	-3%	0.5%
CN(C)CCCN(C(=O)CCc1ccccc1)c1nc2ccc(Cl)cc2s1	?	1	-6%	-0.6%
Cc1ccc(CN2C(=O)CSc3ccc(C(=O)NCCN4CCOCC4)cc32)cc1	1%	1	12%	?
COc1ccc(-c2coc3c(CN4CCCCC4C)c(O)ccc3c2=O)cc1 (stereo not given)	-16%	.	-12%	-0.3%
Cc1ccc2nc(SCC(=O)NCc3ccccc3Cl)nc(=O)n2c1	.	.	-1%	0.1%
Cc1ccc(N(C(=O)C2CCCC2)C2C=CS(=O)(=O)C2)cc1 (stereo not given)	0%	-2	19%	-0.5%
COc1ccccc1-c1nc(SCC(=O)Nc2ccccc2F)n[nH]1	15%	.	3%	-2.5%
CCOCCOCN(C#N)c1nc(OC)nc(N(C)C)n1	-1%	-2	1%	-0.1%
COc1ccccc1NC(=O)CN1C(=O)C(C)SC(C)C1=O (stereo not given)	-12%	-2	16%	3.1%
CCOC(=O)c1c(S(=O)(=O)N2CCCCC2C)c(C)n(C)c1C (stereo not given)	1%	.	3%	1.4%
CC(C)(C)c1ccc(Cn2nnc3c(=O)[nH]c(C4CCCN(C(=O)c5ccco5)C4)nc32)cc1 (stereo not given)	-3%	.	7%	0.9%
O=C1C=C(NCCc2cc(Br)c(O)c(Br)c2)C(=O)c2ncccc21	.	.	-14%	?
COc1cc2c(cc1NC(=O)CN(C)Cc1nc3ccccc3c(=O)[nH]1)oc1ccccc12	0%	-6	-2%	7.0%
N#Cc1ccc(NC(=O)Cn2cnc(S(=O)(=O)N3CCCCC3)c2)cc1	1%	.	4%	1.4%
C[C@H](NC(=O)c1nc[nH]c1C(=O)N1CCNCC1)C(=O)OCc1ccccc1	.	.	-8%	-1.7%
COc1ccc(CCNS(=O)(=O)c2cccc([N+](=O)[O-])c2)cc1	-3%	.	18%	-0.8%
